Abeta yeast res = compounds reversing amyloid beta toxicity in yeast. yeast expressing A-beta42, growth rescue, OD600, 48 h; response scale: 0% DMSO, 100% iron-clioquinol control. Potency, µM (doses to about 46.1 µM), without a hit: at the highest dose growth rescue, most hits filed as activators. 0.063% of 410,000 active; also: potency is read from the fitted curve at half-maximal effect; nearly all actives have a fitted effect of over 55% in size
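Growth rescue measured by 600 nm absorbance after 48 h yeast culture at 30 C with compound. Values normalized between DMSO and an equimolar ferric chloride plus clioquinol control.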
FUS yeast rescue = FUS proteinopathy suppression in yeast | S. cerevisiae FUS-expressing, growth rescue, OD600, 24 h | 0.24% of 390,000 active | Potency, µM (top dose mostly 76.6 µM), for inactives: at the highest dose growth rescue (activation), usual class: activators;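 also: potency is read from the fitted curve at half-maximal effect; plate controls were DMSO vehicle for no effect and reference control for full effect; nearly all actives have a fitted effect of over 55% in size; some results filed as inactive show a strong effect at the top dose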
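Galactose (2%) drives FUS expression in yeast precultured in raffinose; seeding density OD 0.005. Test compounds incubated 24hr at 30C and 99% humidity before absorbance at 600 nm was measured.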
GLP1R inv ag = acts as inverse agonist at human GLP-1 receptor. P43220. HEK293 GLP-1R CRE-luciferase, luminescence, 24 h; GLP-1R form is constitutively active. Potency, µM (top dose mostly 38.3 µM), for the others: at the top dose activity change, negative = inhibition, usual class: inhibitors. 1.6% of 410,000 active; also: potency is read from the fitted curve at half-maximal effect; % is scaled to controls: 0 for no effect and ±100 for the full control effect; nearly all actives have a fitted effect of over 55% in size
Target sequence (P43220 whole entry, looked up): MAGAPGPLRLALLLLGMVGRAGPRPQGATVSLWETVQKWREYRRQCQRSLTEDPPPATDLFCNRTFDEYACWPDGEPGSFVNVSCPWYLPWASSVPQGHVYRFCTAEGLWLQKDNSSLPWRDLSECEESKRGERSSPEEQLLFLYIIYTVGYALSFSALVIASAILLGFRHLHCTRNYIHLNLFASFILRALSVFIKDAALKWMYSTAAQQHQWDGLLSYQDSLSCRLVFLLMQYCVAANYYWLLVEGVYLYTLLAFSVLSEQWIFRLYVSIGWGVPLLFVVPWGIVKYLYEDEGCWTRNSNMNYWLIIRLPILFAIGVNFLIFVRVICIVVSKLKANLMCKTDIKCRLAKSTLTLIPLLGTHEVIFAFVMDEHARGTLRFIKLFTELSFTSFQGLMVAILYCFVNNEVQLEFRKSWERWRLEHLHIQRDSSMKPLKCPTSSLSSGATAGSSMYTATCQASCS
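Constitutively active GLP-1R drives a cAMP-responsive luciferase in stably transfected HEK293 cells; test compounds are added after overnight (12 h) attachment and left 24 hr, and signal loss in luminescence marks inhibition.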
Akt phos inh = inhibitors of Akt phosphorylation; Neuro2A IGF-stimulated pAkt S473 HTRF, 20 min; stronger effect = lower value; activity change, % for hits at 50 µM; 0.32% of 360,000 active; AID 651550; in the data active = activity change below about -80%; also: % is scaled to controls: 0 for no effect and ±100 for the full control effect
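Single-point screen (50 µM final compound) in Neuro2A cells stimulated 20 min with 6 nM IGF at 37 deg C. After lysis, Ser473-phosphorylated Akt read by HTRF (ex 330 nm, em 615/665 nm) as the 665/615 ratio.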
MmCpn inh = M. maripaludis TRiC chaperonin inhibition. purified Mm-Cpn ATPase, ADP Transcreener TR-FRET. Potency, µM (doses to about 76.9 µM), for the others: at the top dose activity, negative = inhibition, actives largely listed as inhibitors. 0.031% of 330,000 active. AID 504842; also: potency is read from the fitted curve at half-maximal effect; % is scaled to controls: 0 for no effect and ±100 for the full control effect; nearly all actives have a fitted effect of over 80% in size
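Purified archaeal Mm-CPN (25nM final) preincubated 10 min at 37degC with compound, then 10uM ATP for 30 min at 37degC; ADP measured by HTRF Transcreener TR-FRET; buffer 30 mM TRIS pH 7.4, 100mM KCl, 5mM MgCl2, 1mM DTT.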
aSyn yeast inh = inhibitors of alpha-synuclein toxicity in yeast | 0.14% of 370,000 active | AID 652106 | Yeast expressing alpha-synuclein, growth rescue, BacTiter-Glo, 24 h | Potency, µM (highest dose often 46.1 µM), without a hit: top-dose growth rescue (activation), actives largely listed as activators; also: potency is read from the fitted curve at half-maximal effect; % of control where 0% means no effect; nearly all actives have a fitted effect of over 65% in size
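Screening used galactose-induced yeast with toxic alpha-synuclein levels, exposed to compound for 24 hr at 30 deg C. Cell growth, read with BacTiter-Glo luminescence, gave the measured signal.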
GLP1R cytotox = cytotoxic in the GLP-1 receptor inverse agonist counter-screen. Potency, µM (titrated, usually from 38.3 µM), inactives show top-dose activity change, negative = inhibition, actives largely listed as inhibitors. HEK293 cAMP-luciferase reporter cells, luminescence, 24 h. 0.13% of 410,000 active. AID 624418;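 also: loss of luciferase light is scored as toxicity; potency is read from the fitted curve at half-maximal effect; % is scaled to controls: 0 for no effect and ±100 for the full control effect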
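Seeding density was 200 cells/uL; after overnight-length (12 h) culture, 23 nL compounds went on for 24 h at 37 °C. Readout used a luciferase detection reagent, luminescence taken after 12 min at room temperature.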
TDP-43 yeast inh = TDP-43 toxicity inhibition in yeast; AID 652104; 1.8% of 410,000 active; TDP-43 expressing yeast growth rescue, BacTiter-Glo, 24 h; Potency, µM (top dose mostly 46.1 µM), inactives show top-dose growth rescue (activation), hits mostly activators; also: potency is read from the fitted curve at half-maximal effect; % of control where 0% means no effect; nearly all actives have a fitted effect of over 50% in size
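Readout is BacTiter-Glo luminescence of cell growth, so inhibitors register as activators. TDP-43-expressing yeast at OD600=0.02 in galactose medium, after raffinose pregrowth to mid-log, were incubated with compound for 24 hr at 30 deg C.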
* = called active by the depositor; i = inactive; · = no result given. Unless noted, calls follow the shape of the dose curve; as a rule, active = well fitted curve in the direction sought with a large enough effect; inconclusive = small, poorly fitted or top-dose-only effect, or another doubt; inactive = no such curve, though single readings can be large; an effect the other way counts as inactive or inconclusive. Only part of the results is shown; rates above refer to the full screens.

[1] CCCC(=O)NCCc1cc(OC)c(OC)cc1Br
[2] CC(=O)O[C@H]1c2ccccc2-c2ccccc2[C@@H]1OC(C)=O
[3] Cc1sc2ncn(CC(=O)NCCCC(=O)N3CCN(c4ncccn4)CC3)c(=O)c2c1C
[4] CC(Sc1nc2ccccc2c(=O)n1CC1CCCO1)C(=O)N(C)c1ccccc1 (centres undefined)
[5] O=C(Nc1nnc(CCN2CCOCC2)s1)c1ccccc1
[6] CCCCCn1ccc(=O)c2c(C(F)(F)F)nccc21
Compound	1	2	3	4	5	6
GLP1R cytotox	-3.9%	4.0%	-13.6%	-9.3%	-1.4%	-12.6%
aSyn yeast inh	-5.0%	2.4%	-4.2%	-3.5%	·	0.3%
Abeta yeast res	-18.2%	1.0%	1.6%	-1.8%	2.8%	6.1%
GLP1R inv ag	23.0%	-18.1%	-2.2%	-23.7%	0.0%	-7.3%
FUS yeast rescue	-16.1%	1.5%	1.1%	21.3%	2.6%	2.6%
MmCpn inh	1.0%	-1.7%	-2.8%	-0.3%	-0.6%	-2.1%
Akt phos inh	i	i	i	i	·	i
TDP-43 yeast inh	-9.4%	19.6%	1.0%	-5.5%	18.2%	7.9%

A different layout for six compounds above:
Value order – GLP1R cytotox | aSyn yeast inh | Abeta yeast res | GLP1R inv ag | FUS yeast rescue | MmCpn inh | Akt phos inh | TDP-43 yeast inh
#1 CCCC(=O)NCCc1cc(OC)c(OC)cc1Br
  -3.9% | -5.0% | -18.2% | 23.0% | -16.1% | 1.0% | i | -9.4%
#2 CC(=O)O[C@H]1c2ccccc2-c2ccccc2[C@@H]1OC(C)=O
  4.0% | 2.4% | 1.0% | -18.1% | 1.5% | -1.7% | i | 19.6%
#3 Cc1sc2ncn(CC(=O)NCCCC(=O)N3CCN(c4ncccn4)CC3)c(=O)c2c1C
  -13.6% | -4.2% | 1.6% | -2.2% | 1.1% | -2.8% | i | 1.0%
#4 CC(Sc1nc2ccccc2c(=O)n1CC1CCCO1)C(=O)N(C)c1ccccc1 (centres undefined)
  -9.3% | -3.5% | -1.8% | -23.7% | 21.3% | -0.3% | i | -5.5%
#5 O=C(Nc1nnc(CCN2CCOCC2)s1)c1ccccc1
  -1.4% | · | 2.8% | 0.0% | 2.6% | -0.6% | · | 18.2%
#6 CCCCCn1ccc(=O)c2c(C(F)(F)F)nccc21
  -12.6% | 0.3% | 6.1% | -7.3% | 2.6% | -2.1% | i | 7.9%
